Screening data as filed in PubChem BioAssay.
GALR2 agonist = activates the human galanin receptor 2; activation, %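 (tested at 5 µM)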; AID 803; GALR2-expressing cells, agonist activation read-out; O43603; 140,000 tested, 0.48% active;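 active = above mean plus 3 SD of all compounds, about 5% in these data, not always enough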;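 also: 0% = vehicle buffer wells and 100% = reference agonist at full effect; tested in CHO reporter cells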
Target sequence (O43603 whole entry, looked up): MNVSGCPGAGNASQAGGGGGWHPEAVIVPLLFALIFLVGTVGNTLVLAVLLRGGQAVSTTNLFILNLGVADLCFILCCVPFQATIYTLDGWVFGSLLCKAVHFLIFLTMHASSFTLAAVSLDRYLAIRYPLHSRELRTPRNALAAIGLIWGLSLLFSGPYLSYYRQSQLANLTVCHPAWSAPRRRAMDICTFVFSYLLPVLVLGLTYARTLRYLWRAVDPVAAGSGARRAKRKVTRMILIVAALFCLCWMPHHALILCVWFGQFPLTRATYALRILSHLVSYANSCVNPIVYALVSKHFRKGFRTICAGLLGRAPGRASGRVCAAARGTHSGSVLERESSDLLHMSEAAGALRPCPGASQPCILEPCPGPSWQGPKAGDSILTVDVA
RGS16-Gao = RGS16-Galphao interaction regulator (human); bead-based flow cytometry RGS16-Galphao binding, fluorescence; actives lie on both sides; binding response (% of control), % at 10 µM; 220,000 tested, 0.38% active;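 active = below 25% or above 175%, edge rows of some plates excepted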;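 also: Galphao activated by GDP with aluminum fluoride before binding; 100% = wells without compound and 0% = beads without RGS; some results beyond the cut were filed as inactive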
Target sequence (O15492 whole entry, looked up): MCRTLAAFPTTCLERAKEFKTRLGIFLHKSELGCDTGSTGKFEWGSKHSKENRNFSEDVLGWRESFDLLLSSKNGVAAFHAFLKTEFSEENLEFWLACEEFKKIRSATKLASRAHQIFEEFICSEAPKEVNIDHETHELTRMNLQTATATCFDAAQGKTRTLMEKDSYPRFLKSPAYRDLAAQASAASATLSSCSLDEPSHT
Target sequence (P09471 whole entry, looked up): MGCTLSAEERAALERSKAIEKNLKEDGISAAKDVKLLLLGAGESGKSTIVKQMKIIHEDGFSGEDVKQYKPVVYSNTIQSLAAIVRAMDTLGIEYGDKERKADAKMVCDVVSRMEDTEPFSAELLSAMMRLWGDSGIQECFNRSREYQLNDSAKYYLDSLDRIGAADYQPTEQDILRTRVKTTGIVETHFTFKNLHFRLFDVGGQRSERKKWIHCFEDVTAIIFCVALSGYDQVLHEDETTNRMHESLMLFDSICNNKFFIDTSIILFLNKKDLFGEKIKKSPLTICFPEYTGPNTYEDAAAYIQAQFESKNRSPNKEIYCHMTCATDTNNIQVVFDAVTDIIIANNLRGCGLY
PKD1 kinase inh = blocks activity of human protein kinase D1; Q15139; PKD1 kinase fluorescence polarization assay; inhibition, %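 (about 10 µM by stock and volumes)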; 200,000 tested, 0.056% active; AID 797;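 active = inhibition of 50% or more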;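 also: controls were vehicle for no effect and a reference inhibitor for full effect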
INS promoter inh = TRM-6 insulin promoter activity inhibition | TRM-6 cells (human fetal islet line), insulin promoter-eGFP reporter, imaging; reporter expression induced with tamoxifen | inhibition, % at 2 µM | 130,000 tested, 0.9% active | AID 1273;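 active = inhibition above the mean plus 3 SD, with well images judged a real hit on visual review, cut at about 60% in these data, passing the limit was not always enough; inconclusive = inhibition over the cutoff but images rejected on review; inactive = inhibition not above the cutoff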
HSV augment = increases HSV replication in cells; HSV replication augmentation in cells, fold increase; maximum fold increase; 220,000 tested, 0.005% active; AID 1956;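 active = peak rise of 1.5-fold or more in the series; inconclusive = self-fluorescent or not available for retest; tested in PC3 cells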;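 also: first round at 10 µM; read as green reporter fluorescence; hits show the peak of a series up to 25 µM; 1 = signal of infected wells without compound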
INS promoter inh cell count = also measured in INS promoter inh; calls as there; normalized cell count, %; measured here: cell count, toxicity; reference of the scale not given here;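 cells exposed to compound for 48 h; stained nuclei by imaging scaled within each plate; lower means fewer cells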
HSV augment primary fold = second read-out of HSV augment, no call of its own (marks repeat the call); fold increase; compound at 10 µM; measured here: primary screen fold increase 10 uM; tested in PC3 cells;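 GFP signal in the first replicate; 1 = infected wells without compound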
Numbers without * were called inactive.

Results for O=C(Nc1cccc(S(=O)(=O)NC2=NCCCCC2)c1)C1COc2ccccc2O1 (stereo not given) ?
RGS16-Gao: 100; PKD1 kinase inh: -1; INS promoter inh: 22; HSV augment: inactive; INS promoter inh cell count: 106; HSV augment primary fold: 1.1

Results for O=c1c2[nH]c3ccccc3c2nc2n1CCCS2 ?
RGS16-Gao: 107; PKD1 kinase inh: 0; HSV augment: inactive; HSV augment primary fold: 1.1

What do the screens show for `Cc1cccc(C(=O)N2CCc3cc(-c4nc(NC(=O)Cn5nnc6ccccc6c5=O)sc4C)ccc32)c1`?
GALR2 agonist: 0.1; RGS16-Gao: 101; PKD1 kinase inh: -5; HSV augment: inactive; HSV augment primary fold: 0.94

Results for COc1cc(C(C(=O)NC2CCCCC2)N(Cc2cccs2)C(=O)Cc2c[nH]c3ccccc23)cc(OC)c1OC (stereo not given) ?
GALR2 agonist: -0.2; RGS16-Gao: 105; PKD1 kinase inh: -5; INS promoter inh: -43; HSV augment: inactive; INS promoter inh cell count: 74; HSV augment primary fold: 0.8

How did COc1ccc(C(O)(CCc2ccccc2)CCN2CCCCC2)cc1 (stereo not given) do in these assays?
RGS16-Gao: 100; PKD1 kinase inh: 1; INS promoter inh: 13; HSV augment: inactive; INS promoter inh cell count: 70; HSV augment primary fold: 0.83

What do the screens show for `CCc1nnc(NC(=O)C(C)C)s1`?
GALR2 agonist: 0.1; RGS16-Gao: 92; PKD1 kinase inh: 3; INS promoter inh: -3; HSV augment: inactive; INS promoter inh cell count: 155; HSV augment primary fold: 0.95

What do the screens show for `Cc1ccc(NC(=O)c2ccc(F)cc2F)cc1NS(C)(=O)=O`?
RGS16-Gao: 102; HSV augment: inactive; HSV augment primary fold: 0.97

How did O=C(O)CSc1nnc(NC(=O)c2ccc3c(c2)OCO3)s1 do in these assays?
RGS16-Gao: 96; PKD1 kinase inh: -2; INS promoter inh: -53; HSV augment: inactive; INS promoter inh cell count: 76; HSV augment primary fold: 0.85

How did COC(OC)c1ccnc(SCc2ccccc2Cl)n1 do in these assays?
RGS16-Gao: 103; HSV augment: inactive; HSV augment primary fold: 1.1

Results for CC(=O)NC1=NC(=O)/C(=C/c2cc(C)n(-c3ccc(NC(C)=O)cc3)c2C)S1 ?
RGS16-Gao: 95; PKD1 kinase inh: -5; HSV augment: inactive; HSV augment primary fold: 0.95

What do the screens show for `CCOC(=O)CN=C(NS(=O)(=O)c1ccc(Cl)cc1)c1ccccc1`?
RGS16-Gao: 99; PKD1 kinase inh: -1; HSV augment: inactive; HSV augment primary fold: 0.89

How did COc1ccc(OC)c(NC(=O)Cn2cccc2)c1 do in these assays?
GALR2 agonist: -0.6; RGS16-Gao: 85; PKD1 kinase inh: -8; HSV augment: inactive; HSV augment primary fold: 0.68

What do the screens show for `CSCCC(NS(=O)(=O)c1ccc2c(c1)oc(=O)n2C)C(=O)NCc1ccc(C)cc1` (stereo not given)?
RGS16-Gao: 105; HSV augment: inactive; HSV augment primary fold: 1

What do the screens show for `CCCCn1c(SCC(=O)NNC(=O)c2ccco2)nnc1-c1ccco1`?
RGS16-Gao: 98; PKD1 kinase inh: 3; INS promoter inh: -7; HSV augment: inactive; INS promoter inh cell count: 47; HSV augment primary fold: 0.95

What do the screens show for `CN(CC(=O)Nc1ccccc1Cl)C(=O)CSc1nnc(-c2ccco2)o1`?
RGS16-Gao: 97; PKD1 kinase inh: -5; HSV augment: inactive; HSV augment primary fold: 1

How did CCN(CC)CCCNC(=O)Cn1nc([N+](=O)[O-])c(Cl)c1C do in these assays?
RGS16-Gao: 112; PKD1 kinase inh: 6; INS promoter inh: 36; HSV augment: inactive; INS promoter inh cell count: 123; HSV augment primary fold: 1.1

How did O=C(Nc1ccccc1)Nc1ccc(C(=O)N2CCCC2)cc1 do in these assays?
RGS16-Gao: 102; PKD1 kinase inh: 2; HSV augment: inactive; HSV augment primary fold: 0.74

What do the screens show for `CNC(=S)Nc1cccc([N+](=O)[O-])c1`?
RGS16-Gao: 102; PKD1 kinase inh: 3; HSV augment: inactive; HSV augment primary fold: 0.9

What do the screens show for `O=C(CCS(=O)(=O)c1ccc(Br)cc1)Nc1ccccn1`?
GALR2 agonist: -1.6; RGS16-Gao: 95; PKD1 kinase inh: -2; INS promoter inh: 10; HSV augment: inactive; INS promoter inh cell count: 77; HSV augment primary fold: 1.1

How did CC(=O)N1CCCN(Cc2cn(-c3cc(C)ccc3C)nc2-c2ccccc2)CC1 do in these assays?
RGS16-Gao: 100; PKD1 kinase inh: -1; HSV augment: inactive; HSV augment primary fold: 0.91

What do the screens show for `C/C(=N\NC(=O)CSc1nc2ccccc2o1)c1cccc(O)c1`?
RGS16-Gao: 102; HSV augment: inactive; HSV augment primary fold: 0.98

How did Cc1ccc(Cn2c(CN3CC(C)OC(C)C3)nc3c2c(=O)[nH]c(=O)n3C)cc1 (stereo not given) do in these assays?
GALR2 agonist: -0.6; RGS16-Gao: 102; PKD1 kinase inh: -4; HSV augment: inactive; HSV augment primary fold: 1.1

How did O=C(Nc1ccc(O)c(-c2nc3ccccc3s2)c1)C1=COCCO1 do in these assays?
GALR2 agonist: -1.3; RGS16-Gao: 102; PKD1 kinase inh: 7; INS promoter inh: 13; HSV augment: inactive; INS promoter inh cell count: 123; HSV augment primary fold: 1

Results for Nc1scc[n+]1Cc1cccc2cccnc12 ?
RGS16-Gao: 98; HSV augment: inactive; HSV augment primary fold: 1

Results for COc1cc(CN(C2CCCCC2)S(=O)(=O)c2ccc(S(=O)(=O)N(C)C3CCCCC3)cc2)cc(OC)c1OC ?
GALR2 agonist: -1.8; RGS16-Gao: 68; PKD1 kinase inh: 7; INS promoter inh: 11; HSV augment: inactive; INS promoter inh cell count: 119; HSV augment primary fold: 0.93

Results for O=C(N/N=C/c1ccc(Br)s1)c1cccnc1 ?
RGS16-Gao: 87; PKD1 kinase inh: -12; INS promoter inh: 30; HSV augment: inactive; INS promoter inh cell count: 78; HSV augment primary fold: 0.96

How did COc1cccc(C(=O)NNC2OC(CO)C(O)C2O)c1 (stereo not given) do in these assays?
RGS16-Gao: 106; PKD1 kinase inh: -1; INS promoter inh: -23; HSV augment: inactive; INS promoter inh cell count: 121; HSV augment primary fold: 0.93

What do the screens show for `O=C(Cc1n[nH]c(=O)[nH]c1=O)N/N=C/c1cccc(O)c1`?
GALR2 agonist: 15*; RGS16-Gao: 91; PKD1 kinase inh: 1; INS promoter inh: 21; HSV augment: inactive; INS promoter inh cell count: 139; HSV augment primary fold: 0.92

What do the screens show for `Cc1ccc2cc(COC(=O)C3CCCO3)c(=O)[nH]c2c1` (stereo not given)?
GALR2 agonist: -3.1; RGS16-Gao: 101; PKD1 kinase inh: -1; INS promoter inh: -27; HSV augment: inactive; INS promoter inh cell count: 118; HSV augment primary fold: 1

How did Cc1ccc(C2(c3noc(CN(C)Cc4ccccn4)n3)CCCC2)cc1 do in these assays?
RGS16-Gao: 71; PKD1 kinase inh: -2; HSV augment: inactive; HSV augment primary fold: 1.1

What do the screens show for `Cc1nn(-c2ccccc2)c(Cl)c1/C=C1\SC(=S)N(C)C1=O`?
GALR2 agonist: -1.4; RGS16-Gao: 98; PKD1 kinase inh: -7; INS promoter inh: -36; HSV augment: inactive; INS promoter inh cell count: 80; HSV augment primary fold: 1

How did CS(=O)(=O)c1nc(-c2ccccc2)c(-c2ccccc2)[nH]1 do in these assays?
GALR2 agonist: 0.5; RGS16-Gao: 97; PKD1 kinase inh: 2; INS promoter inh: 44; HSV augment: inactive; INS promoter inh cell count: 88; HSV augment primary fold: 0.88

What do the screens show for `O=C(Nc1ccc(N2CCCC(O)C2)cc1)c1snc2c(=O)[nH]cnc12` (stereo not given)?
GALR2 agonist: -2.4; RGS16-Gao: 101; PKD1 kinase inh: 1; HSV augment: inactive; HSV augment primary fold: 0.72

What do the screens show for `CC1CCCC(C)N1CCNC(=O)CCn1nc(-c2ccccc2)ccc1=O` (stereo not given)?
GALR2 agonist: -3.4; RGS16-Gao: 103; PKD1 kinase inh: -14; INS promoter inh: 36; INS promoter inh cell count: 99

How did Cc1ccc(NS(=O)(=O)c2cccc(C(=O)NCCc3c[nH]c4ccccc34)c2)c(C)c1 do in these assays?
GALR2 agonist: -1.1; RGS16-Gao: 100; PKD1 kinase inh: -1; HSV augment: inactive; HSV augment primary fold: 0.78

How did O=C1c2ccccc2C(=O)N1CN(C(=O)c1ccccc1)c1ccc(O)cc1 do in these assays?
RGS16-Gao: 102; PKD1 kinase inh: -6; INS promoter inh: 47; HSV augment: inactive; INS promoter inh cell count: 62; HSV augment primary fold: 0.9

Results for O=C(Nc1cccc(Cl)c1)c1cnn2cccnc12 ?
GALR2 agonist: -1.8; RGS16-Gao: 75; PKD1 kinase inh: 2; INS promoter inh: 67; HSV augment: inactive; INS promoter inh cell count: 140; HSV augment primary fold: 0.96

What do the screens show for `Cc1ccc(Nc2nc3ccccc3n3nnnc23)cc1`?
RGS16-Gao: 104; PKD1 kinase inh: 4; HSV augment: inactive; HSV augment primary fold: 0.97

How did Cc1noc(C)c1COc1ccc(C(=O)OCC(=O)Nc2cccc(S(=O)(=O)N3CCOCC3)c2)cc1 do in these assays?
GALR2 agonist: -0.8; RGS16-Gao: 80; PKD1 kinase inh: -7; INS promoter inh: 29; HSV augment: inactive; INS promoter inh cell count: 123; HSV augment primary fold: 0.85

What do the screens show for `O=C1c2ccccc2C(=O)N1c1ccc(Cl)cc1`?
GALR2 agonist: -0.6; RGS16-Gao: 107; PKD1 kinase inh: 1; INS promoter inh: 11; HSV augment: inactive; INS promoter inh cell count: 74; HSV augment primary fold: 0.96

How did CCc1cccc(NC(=O)c2cc(S(=O)(=O)N(C)C)ccc2N2CCCC2)c1 do in these assays?
RGS16-Gao: 102; PKD1 kinase inh: 1; HSV augment: inactive; HSV augment primary fold: 0.92

What do the screens show for `COc1ccc(C)cc1Nc1cc(C)nc2ncnn12`?
GALR2 agonist: -2.5; RGS16-Gao: 102; PKD1 kinase inh: -10; INS promoter inh: -20; INS promoter inh cell count: 89

Results for COc1cc(C2SCC(=O)N2CCCN(C)C)cc(OC)c1OC (stereo not given) ?
GALR2 agonist: -2.6; RGS16-Gao: 106; PKD1 kinase inh: -1; INS promoter inh: -13; HSV augment: inactive; INS promoter inh cell count: 61; HSV augment primary fold: 0.85

Results for Cc1ccc(/C=C/C(=O)Nc2ccc(S(=O)(=O)Nc3ncccn3)cc2)cc1 ?
RGS16-Gao: 120; PKD1 kinase inh: 7; INS promoter inh: 7; HSV augment: inactive; INS promoter inh cell count: 106; HSV augment primary fold: 1.1

Results for Cc1cc(C)nc(NC(=O)Nc2ccc3c(c2)OCO3)c1 ?
RGS16-Gao: 114; PKD1 kinase inh: -4; INS promoter inh: 20; HSV augment: inactive; INS promoter inh cell count: 120; HSV augment primary fold: 1

The final four entries of the section above open the next one.
What do the screens show for `COc1ccc(C)cc1Nc1cc(C)nc2ncnn12`?
GALR2 agonist: -2.5; RGS16-Gao: 102; PKD1 kinase inh: -10; INS promoter inh: -20; INS promoter inh cell count: 89

Results for COc1cc(C2SCC(=O)N2CCCN(C)C)cc(OC)c1OC (stereo not given) ?
GALR2 agonist: -2.6; RGS16-Gao: 106; PKD1 kinase inh: -1; INS promoter inh: -13; HSV augment: inactive; INS promoter inh cell count: 61; HSV augment primary fold: 0.85

Results for Cc1ccc(/C=C/C(=O)Nc2ccc(S(=O)(=O)Nc3ncccn3)cc2)cc1 ?
RGS16-Gao: 120; PKD1 kinase inh: 7; INS promoter inh: 7; HSV augment: inactive; INS promoter inh cell count: 106; HSV augment primary fold: 1.1

Results for Cc1cc(C)nc(NC(=O)Nc2ccc3c(c2)OCO3)c1 ?
RGS16-Gao: 114; PKD1 kinase inh: -4; INS promoter inh: 20; HSV augment: inactive; INS promoter inh cell count: 120; HSV augment primary fold: 1

What do the screens show for `Cc1ccc(NC(=O)c2c(Cl)n(C)c3ccccc23)cc1`?
GALR2 agonist: -1.0; RGS16-Gao: 100; PKD1 kinase inh: 12; INS promoter inh: 16; INS promoter inh cell count: 116

What do the screens show for `c1ccc2c(c1)ncn2Cc1nnc2sc(-c3ccncc3)nn12`?
GALR2 agonist: -0.1; RGS16-Gao: 90; PKD1 kinase inh: 8; HSV augment: inactive; HSV augment primary fold: 0.81

What do the screens show for `O=C1c2ccccc2-c2cccc(NS(=O)(=O)c3ccc(C(F)(F)F)cc3)c21`?
GALR2 agonist: -1.7; RGS16-Gao: 96; PKD1 kinase inh: 15; INS promoter inh: -46; HSV augment: inconclusive; INS promoter inh cell count: 47

What do the screens show for `COC(=O)C(NC(=O)c1ccccc1)(Nc1cc(C)cc(C)n1)C(F)(F)F` (stereo not given)?
GALR2 agonist: -3.2; RGS16-Gao: 104; PKD1 kinase inh: 5; INS promoter inh: -238; HSV augment: inactive; INS promoter inh cell count: 71; HSV augment primary fold: 0.94

No enrichment for hits; any-hit rate near 1.3%.
